Bioassay records as filed in PubChem.
Marburg entry inh: Marburg virus entry inhibition; Marburg virus pseudotyped entry inhibition, cell reporter; control for the full effect not named in the record; about a third of the inactives were read at about 46 µM; Potency, µM (highest dose often 37.8 µM), for inactives: top-dose activity change, negative = inhibition, hits mostly inhibitors; 300,000 tested, 1.8% active; AID 540276; active = well fitted inhibition curve with a large enough effect; inconclusive = small, poorly fitted or top-dose-only effect, or effect the other way; inactive = flat fitted curve, though single readings scatter; tested in HEK293 cells; about a fifth of its hits are not listed in these tables; note: % is set by controls: 0 for no effect and ±100 for the full control effect; luciferase read-out
RE007 growth inh: less growth of the S. pombe RE007 Vpr strain; S. pombe RE007 Vpr strain, BacTiter-Glo ATP luminescence, 24 h; control for the full effect not named in the record; Potency, µM (series often up to 92.2 µM), for the others: at the top dose activity change, negative = less growth; 360,000 tested, 0.21% active; active = well fitted falling curve with a large enough effect; inconclusive = small, poorly fitted or top-dose-only effect; inactive = no such curve, though single readings can be large or run the other way;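 note: % is set by controls: 0 for no effect and ±100 for the full control effect; nearly all actives have a fitted effect of over 50% in size; the assay follows cell death caused by Vpr and the record does not say whether a fall means rescue or toxicity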
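Fission yeast strain RE007, carrying one chromosomally integrated HIV-1 vpr copy, was seeded at OD 0.01 in PMG+AL medium with 23 nL pinned compound. After 24 h at 30 °C and 99% humidity, viability was read by BacTiter-Glo luminescence.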
SARS PLpro yeast: SARS-CoV PLP inhibition in yeast; S. cerevisiae expressing SARS-CoV PLpro, growth rescue; control for the full effect not named in the record; Potency, µM (highest dose often 32.9 µM), inactives show at the highest dose activity, positive = growth rescue; 330,000 tested, 0.19% active; active means well fitted rising curve with a large enough effect; inconclusive means small, poorly fitted or top-dose-only effect; inactive means no such curve, though single readings can be large or run the other way; note: 0% is about no effect; nearly all actives have a fitted effect of over 55% in size; growth read by luminescence after 48 h
Cruzain inh noDet: inhibitors of Trypanosoma cruzi cruzain without detergent; 200,000 tested, 2.3% active; Potency, µM, for the others: max response, negative = inhibition, hits mostly inhibitors; purified cruzain, Z-FR-AMC fluorescence, no detergent; P25779;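 note: plate controls were enzyme without inhibitor for no effect and buffer without enzyme for full effect; nearly all actives have a fitted effect of over 40% in size; top concentration of the series not given in the record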
Target sequence (P25779 123-467 limits assumed): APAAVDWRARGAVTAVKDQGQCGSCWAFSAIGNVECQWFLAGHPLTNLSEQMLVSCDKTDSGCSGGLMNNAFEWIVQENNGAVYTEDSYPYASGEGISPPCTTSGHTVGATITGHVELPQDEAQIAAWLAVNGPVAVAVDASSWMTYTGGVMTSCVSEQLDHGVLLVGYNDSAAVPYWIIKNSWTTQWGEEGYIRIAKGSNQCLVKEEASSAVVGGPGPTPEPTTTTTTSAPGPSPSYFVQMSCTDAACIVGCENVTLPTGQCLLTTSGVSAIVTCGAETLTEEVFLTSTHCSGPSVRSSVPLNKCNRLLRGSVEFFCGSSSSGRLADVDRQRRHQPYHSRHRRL
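Purified cruzain at 1.5 nM, pre-incubated 15 min with compound at room temperature in 100 mM sodium acetate pH 5.5, 5 mM DTT, 0.00005% Triton X-100. Reaction started with 2 uM Z-FR-AMC; AMC fluorescence increase over 60 s gives rate.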
NS1 inh: influenza NS1 inhibition | S. cerevisiae slowed by influenza A NS1, growth recovery by OD600 | Potency, µM (top dose mostly 46.1 µM), for inactives: at the top dose activity, positive = more growth | 270,000 tested, 0.4% active | AID 2326; active means well fitted rising curve with a large enough effect; inconclusive means small, poorly fitted or top-dose-only effect; inactive means no such curve, though single readings can be large or run the other way; note: nearly all actives have a fitted effect of over 50% in size
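A cell-based growth assay was used: compounds that relieve NS1-induced slow growth of budding yeast raise OD600. Assay medium was yeast nitrogen base with ammonium sulphate and -URA supplement, pH 6.0, with 2% galactose.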
Cruzain inh Det: inhibitors of Trypanosoma cruzi cruzain with detergent; Potency, µM, for inactives: max response, negative = inhibition, usual class: inhibitors; 200,000 tested, 0.43% active; purified cruzain, Z-FR-AMC fluorescence, 0.01% Triton; P25779; AID 1478;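 note: plate controls were neutral wells for no effect and buffer without enzyme for full effect; nearly all actives have a fitted effect of over 40% in size; top concentration of the series not given in the record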
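Read-out: AMC fluorescence (360 nm excitation, 450 nm emission), four reads over 2 min, first-to-third difference used. Conditions: cruzain 1.5 nM, Z-FR-AMC 2 uM, pH 5.5 acetate, 5 mM DTT, 0.01% Triton X-100.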
2A StopGo: lowers the luciferase signal of an FMDV 2A StopGo reporter; human cells with a luciferase reporter of 2A StopGo recoding; control for the full effect not named in the record; Potency, µM (titrated, usually from 57.9 µM), inactives show at the top dose signal change, negative = less light; 410,000 tested, 1.2% active; active = well fitted falling curve with a large enough effect; inconclusive = small, poorly fitted or top-dose-only effect; inactive = no such curve, though single readings can be large or run the other way; tested in HEK293T cells; note: % is set by controls: 0 for no effect and ±100 for the full control effect; nearly all actives have a fitted effect of over 45% in size; luciferase light after 4 h
LASV entry inh: blocks Lassa virus binding to or entry into cells. Lassa virus pseudotype entry inhibition, cell reporter; control for the full effect not named in the record. Potency, µM (titrated, usually from 37.9 µM), for the others: top-dose activity change, negative = inhibition, most hits filed as inhibitors. 300,000 tested, 1.2% active. AID 540256; active means well fitted inhibition curve with a large enough effect; inconclusive means small, poorly fitted or top-dose-only effect, or effect the other way; inactive means flat fitted curve, though single readings scatter; tested in HEK293 cells; note: % is set by controls: 0 for no effect and ±100 for the full control effect; nearly all actives have a fitted effect of over 50% in size; luciferase read-out
The depositor's hits bear a star; ? = inconclusive; . = no result given; [ ] = remark or other dose. Unless noted, calls come from the whole dose curve; as a rule, active = well fitted curve in the direction sought with a large enough effect; inconclusive = small, poorly fitted or top-dose-only effect, or another doubt; inactive = no such curve, though single readings can be large; an effect the other way counts as inactive or inconclusive. Potency is the fitted concentration of half-maximal effect.

Value order – Marburg entry inh, RE007 growth inh, SARS PLpro yeast, Cruzain inh noDet, NS1 inh, Cruzain inh Det, 2A StopGo, LASV entry inh
1) Oc1cc2c(cc1O)[C@H]1c3ccccc3CNC1CC2 (stereo partly drawn)
  16µM*, ., ., 6%, 2%, 3.7%, ., .
2) O=C(O)CCC(=O)Nc1nnc(C(F)(F)F)s1
  8%[46.1 µM], 7%, 12%, -6%, 3%, -1.4%, -1%, -3%
3) COc1cc(-c2cn[nH]c2N)cc(OC)c1OC
  ?, 2%, -2%, 0%, 7%, -0.3%, -10%, 4%
4) Cc1ccccc1NC(=O)CSc1[nH]c(=O)cc(C)c1C#N
  ., 0%, 0%, -21%, -16%, 0.4%, -17%, .
5) O=C(OCc1cc(=O)n2ccsc2n1)c1ccccc1NCCO
  25%[46.1 µM], -10%, 6%, ., ., ., 4%, 23%[46.1 µM]
6) COc1ccc2ccccc2c1/C=N/NC(=O)c1nnn(-c2nonc2N)c1C(C)C
  7%[46.1 µM], -23%, -2%, ., 0%, ., -22%, ?
7) Cc1ccc(C(=O)Nc2ccc(F)cc2)cc1S(=O)(=O)N1CCCCCC1
  ., ., ., -10%, ., -5.3%, -26%, ?
8) O=C1c2ccccc2C(=O)C12OC2c1cccc2ccccc12 (stereo not drawn)
  ?, 12%, -6%, -16%, 11%, -21%, -15%, ?
9) c1cc2c3c(cccc3c1)NC1(CCC3(CC1)Nc1cccc4cccc(c14)N3)N2
  ., -20%, -5%, ., 8%, ., ?, .
10) O=C1c2cccc3cccc(c23)C(=O)N1Cc1cccnc1
  ?, -3%, 0%, ., -9%, ., -9%, -4%
11) CCN(CC(=O)Nc1cc(Cl)ccc1-n1cncn1)Cc1nc2ccccc2c(=O)[nH]1
  2%, 4%, 2%, ., ., ., -23%, 0%
12) O=C1CC(N2CCOCC2)C(=O)N1Cc1ccc(N2CCCC2=O)cc1 (stereo not drawn)
  16%, -3%, 0%, -1%, -7%, 0.0%, 5%, 12%
13) Cc1ccc(-c2noc(CNS(=O)(=O)c3ccccc3)n2)cc1
  3%, -4%, -2%, ., -5%, ., -2%, 8%
14) CCOC(=O)N1CCN(C(=O)c2cc(C)c3c(C)nn(-c4ccccc4)c3n2)CC1
  -15%, -1%, 5%, ?, -71%, -0.6%, -16%, 0%
15) O=C(NCc1ccccc1Cl)c1cccc(C(F)(F)F)c1
  ?, 16%, -2%, -2%, -25%, -5.5%, 7%, -24%
16) CCN(CC)c1ccc2cc(-c3nc(-c4cc(OC)c(OC)c(OC)c4)no3)c(=O)oc2c1
  ., ., ., 3%, ., 0.8%, -12%, 27%[46.1 µM]
17) CCOc1ccc(N2C(=O)NC(=O)/C(=C\c3ccc(N4CCOCC4)cc3C)C2=O)cc1
  15%[46.1 µM], -9%, 0%, ., 11%, ., -9%, 13%[46.1 µM]
18) COc1ccc(Br)cc1CNC(=O)C1CCCN(S(C)(=O)=O)C1 (stereo not drawn)
  5%, -1%, -3%, 4%, -2%, -5.5%, -18%, 14%
19) CN(C)S(=O)(=O)c1ccc(/C(O)=C2/C(=O)C(=O)N(CCCN3CCOCC3)C2c2ccncc2)cc1 (stereo not drawn)
  3%[46.1 µM], -10%, ., ., ., ., -6%, -9%
20) COc1cccc(C(=O)Nc2nnc(-c3ccccc3)s2)c1OC
  ., -4%, -8%, ., -22%, ., 45%[activator], .
21) CCCCC(=O)Nc1ccc(C(=O)OCc2cc(=O)n3nc(C4CC4)sc3n2)cc1
  ., ., ., -10%, ., -0.4%, -27%, 7%[46.1 µM]
22) CCc1ccccc1NC(=O)CSc1nc2n[nH]c(C)c2c(=N)n1-c1cccc(C)c1
  ., ., ., ?, ., -4.8%, -27%, -23%[46.1 µM]
23) CSCC[C@H](NC(=O)C1CCCC1)c1nc2ccccc2[nH]1
  23%[46.1 µM], 4%, -4%, ., -3%, ., -1%, 25%
24) Cc1c(C(=O)N2CC(C)OC(C)C2)sc2nc(-c3ccc(F)cc3)cn12 (stereo not drawn)
  4%, -16%, 4%, 23%, -10%, 0.7%, -4%, 2%
25) Cc1ccc(C(C)(C)C)cc1S(=O)(=O)NC(=O)c1ccccc1
  7%[46.1 µM], 6%, 1%, ., 2%, ., 11%, 5%
26) CC1CCN(C(=O)COC(=O)[C@H](C)NS(=O)(=O)/C=C/c2ccccc2)CC1
  -11%[46.1 µM], -2%, 0%, 4%, -13%, -1.2%, -11%, -14%
27) Cc1cc(C)cc(Nc2nc3cc(Cl)c(Cl)cc3nc2-n2nc(C)cc2C)c1
  1%[46.1 µM], ., ., -15%, ., 0.2%, 5%, -1%[46.1 µM]
28) COc1ccccc1NC(=O)C(=O)NCC1COc2ccccc2O1 (stereo not drawn)
  26%, 9%, -5%, -3%, -10%, -5.9%, ., 16%
29) CCOc1cc(-n2nc(C)c(C#N)c2N)nc(SC)n1
  ., ., -5%, 11%, 7%, 2.5%, ., .
30) CC1=CC2=NC(=O)/C(=C\c3ccc(OC(=O)c4ccco4)cc3)C(=N)N2O1
  7%[46.1 µM], -21%, -4%, ., ., ., -2%, 17%[46.1 µM]
31) CC(C)CCCCCCCCCCCCC(=O)NCC(=O)NC1C(C)OC(Nc2ncnc3nc[nH]c23)C(O)C1O (stereo not drawn)
  ?, ?, ., ., ., ., ?, 0.079µM*
32) CC(C)NC(=O)CC(c1ccccc1)c1cc(Br)ccc1O (stereo not drawn)
  -3%, -5%, 3%, -2%, -4%, -1.1%, 0%, 12%
33) Cc1cc(N2CCN(C(=O)c3ccco3)CC2)n2nc(-c3cccc(Cl)c3)cc2n1
  16µM*, -4%, -4%, ?, -71%, -17%, ?, 26µM*
34) CCCCCCC(=O)N(O)C1CC(=O)N(c2ccc(C)cc2)C1=O (stereo not drawn)
  ?, 0%[3.69 µM], -48%, ?, -36%, 5.6%, 22%, -14%
35) O=C(Nc1cc(C(=O)N2CCCC2)ccc1N1CCCC1)C1CC1
  2%, -2%, -22%, 0%, 5%, -1.8%, -12%, 10%
36) COCCCNC(=O)Cn1c(=O)n(CCCCCC(=O)Nc2ccccc2)c(=O)c2sccc21
  -1%, 1%, 8%, -2%, 1%, -1.2%, 8%, 13%
37) CCOC(=O)c1cnn(CCOC(=O)C(C)(C)C)c1NC(=O)C(C)(C)C
  ?, 0%, -1%, 4%, -2%, 4.1%, -24%, -2%
38) NN(Cc1ccccc1)C(=S)Nc1ccc(Cl)c(Cl)c1
  8%[46.1 µM], -12%, -20%, ., -2%, ., 41%[activator], 25%[46.1 µM]
39) COc1ccc(CC(=O)Nc2ccc(S(=O)(=O)Nc3onc(C)c3C)cc2)cc1OC
  0%[46.1 µM], 6%, 0%, ., 6%, ., -8%, -4%[46.1 µM]
40) COC(=O)COc1ccc(S(=O)(=O)N2CCCCCC2)cc1C
  -11%[46.1 µM], -14%, 1%, ., 19%, ., 7%, -4%[46.1 µM]
41) N#C/C(C(=O)N1CCCCC1)=C1/N=C(N)c2ccccc21
  ?, -8%, -1%, -16%, 3%, -4.1%, 48%[activator], ?
42) CCOC(=O)c1nn(-c2cccc(Cl)c2)c(C)c1C(C)=O
  0%, -2%, -11%, -3%, -17%, 6.8%, -17%, 15%
43) O=C(Nc1ccc(F)cc1)c1ccc(S(=O)(=O)NCc2cccnc2)cc1
  ?, 6%, 2%, ., 12%, ., -22%, -12%[46.1 µM]
44) CCSc1nnc2c(n1)OC(c1ccc(C)cc1)N(C(C)=O)c1ccccc1-2 (stereo not drawn)
  -7%[46.1 µM], ., ., -5%, ., -2.2%, 2%, -26%[46.1 µM]
45) CC(c1ccccc1)N1CCc2[nH]c(=S)[nH]c(=O)c2C1 (stereo not drawn)
  -16%[46.1 µM], -10%, 1%, ., ., ., -6%, 8%[46.1 µM]
46) COC(=O)c1ccc(/C=N/Nc2nc(-c3ccccc3)cs2)cc1
  12%, -4%, 16%, 13µM*, -2%, -6.3%, -13%, -3%
47) c1ccc2oc(-c3ccc(Nc4nc(N5CCCCC5)nc(N5CCOCC5)n4)cc3)nc2c1
  -1%, ., -3%, 5%, 1%, -4.5%, ., .
48) Cc1noc(/C=C/N(C)C)c1S(=O)(=O)N(C)CC(=O)NC1CCCCC1
  -4%, 16%, -4%, -2%, 17%, -2.4%, 8%, -13%
49) CCOc1ccc(C(=O)Nc2nnn(CC)n2)cc1
  8%, 10%, ?, 1%, -11%, 4.3%, 9%, ?
50) O=C(CSc1nc2c(c(=O)[nH]1)CCC2)Nc1ccccc1F
  -1%[46.1 µM], ., ., 18%, ., -7.0%, -17%, -14%[46.1 µM]
51) CC(C)(C)N(Cc1ccccc1)C(=O)COC(=O)CN1C(=O)C2CC=CCC2C1=O (stereo not drawn)
  ?, -5%, 2%, ., -1%, ., -7%, 2%
52) COc1ccc(C)cc1NC(=O)c1ccc(CN2CCN(c3ccccc3)CC2)cc1
  ?, ., -5%, -21%, -10%, -6.3%, ?, ?
53) CCOC(=O)C1=C(C)NC(=O)CC1c1cc2c(cc1[N+](=O)[O-])OCO2 (stereo not drawn)
  -19%[46.1 µM], -4%, 2%, ., ., ., -13%, -19%[46.1 µM]
54) Fc1ccc(-c2nc(Nc3ccc(F)c(Cl)c3)nc3c2COc2ccccc2-3)cc1
  ?, ., ., -21%, ., -3.3%, -6%, ?
55) CC(NC(=O)CN1C(=O)NC2(CCCCCCC2)C1=O)c1ccccc1 (stereo not drawn)
  16%, -10%, -2%, ., ., ., -13%, 0%
56) O=S(=O)(c1cccs1)N1CCN(CCOc2ccccc2)CC1
  ?, 20%, -2%, ., ., ., ?, ?
57) CCOC(=O)COc1nc(Nc2ccccc2C)nc(N(C)C)n1
  12%, -17%, -3%, -1%, -56%, 4.5%, 6%, 7%
58) COC(=O)c1ccc(COc2ccc(/C=N/N3CCN(C)CC3)cc2)cc1
  42%[46.1 µM], 25%, 1%, ., -9%, ., 14%, ?
59) Cc1ccc(F)c(NC(=O)c2ccc(Cn3cc(Cl)cn3)cc2)c1
  ?, 17%, -2%, ., -33%, ., 30%, -1%
